# Compound activity (PubChem)
# VACV Venus inh: inhibitors of vaccinia virus (Venus reporter); hit rate 0.46% among 330,000; Vaccinia virus Venus reporter expression, fluorescence; AID 720580; Potency, µM (series often up to 36.5 µM), for inactives: top-dose activity change, negative = inhibition, hits mostly inhibitors; active means well fitted inhibition curve with a large enough effect; inconclusive means small, poorly fitted or top-dose-only effect; inactive means no such curve, though single readings can be large or run the other way; tested in A549 cells; further: nearly all actives have a fitted effect of over 30% in size; inactives centre near -10
# Vaccinia mCherry: vaccinia inhibition (mCherry reporter) | Vaccinia virus mCherry reporter infection, fluorescence; about a quarter of the inactives have no number | Potency, µM (series often up to 36.5 µM), without a hit: top-dose activity change, negative = inhibition, hits mostly inhibitors | hit rate 0.63% among 310,000; active = well fitted inhibition curve with a large enough effect; inconclusive = small, poorly fitted or top-dose-only effect; inactive = no such curve, though single readings can be large or run the other way; tested in A549 cells; further: nearly all actives have a fitted effect of over 35% in size; inactives centre near -10
# Starred values were filed as active, the others as inactive; i = inactive; ? = inconclusive; · = no result given; & = joins results of further samples; [ ] = another dose, or the depositor's remark. On the % scale 0 is the no-effect control and ±100 the full control effect; potency means the concentration at half of the fitted maximal effect.
# Every second line gives: VACV Venus inh | Vaccinia mCherry
- COc1cc2c(cc1OC)C(CNC(=O)C=Cc1ccccc1)C2 (stereo not drawn)
  -7% | 1%
- ClCCn1cnc2c(SCc3ccccc3Cl)ncnc21
  31%[activator] | ?
- C=CCNC(=O)/C(C#N)=C/c1c(N2CC(C)OC(C)C2)nc2ccccn2c1=O (stereo not drawn)
  -10% | -15%
- Cc1ccc(NC(=O)CSc2nnc(-c3ccco3)o2)cc1
  -14% | -3%
- CCOP(=O)(OCC)C(Nc1ccc(F)cc1)c1ccccc1 (stereo not drawn)
  -5% | -9%
- COc1ccc(-c2nn(-c3ccc(F)cc3)c3c2cnc2ccc(F)cc23)cc1OC
  0% | -4%
- COc1ccccc1-c1ccc(Nc2ccc(C(=O)N3CCOCC3)cc2)nn1
  -6% | -9%
- CCOC(=O)CSc1nc2c(sc(=S)n2-c2ccc(OCC)cc2)c(=O)[nH]1
  -13% | -2%
- COc1ccc2[nH]c(C)c(CCNC(=S)Nc3cccc(C)c3C)c2c1
  -12% | ?
- CC(C)c1ccc2c(c1)C(N1CCN(C)CC1)Cc1cccnc1S2 (stereo not drawn)
  -11% | -5%
- CCC(Sc1nc2ccccc2s1)C(=O)Nc1cc(C)on1 (stereo not drawn)
  -22% | -30%
- Cc1ccc(NC(=O)CSc2nnc3ccc(-c4cccnc4)nn23)cc1
  3% | -8%
- COc1ccc(NC(=O)c2cc(-c3cccnc3)nc3ccc(C)cc23)cc1OC
  -9% | -12%
- COc1ccc(CCNC(=O)CN2CCC(C(N)=O)CC2)cc1
  -21% | -8%
- CC(=O)c1cccc(NC(=O)C2Cc3c(-c4ccco4)ccnc3O2)c1 (stereo not drawn)
  -15% | -2%
- O=C(c1ccc(=O)[nH]c1)N(c1ccccc1)C(CCc1ccccc1)c1nc2ccccc2[nH]1 (stereo not drawn)
  -1% | 27%
- Cc1ccccc1N1CC(C(=O)O)CC1=O (stereo not drawn)
  -5% | -20%
- O=C1C2C3C=CC(C3)C2C(=O)N1c1cccc2ccccc12 (stereo not drawn)
  -3% | i
- Cc1ccc(-c2ccc(CCC(=O)O)n2NC(=O)c2ccco2)cc1
  -6% | ·
- Cc1cc(C(=O)Cn2cncn2)c(C)n1CCc1ccc(F)cc1
  -15% | i
- Cc1ccc(NC(=O)Nc2cc(Cl)ccc2C2COC(=O)C2=N)cc1 (stereo not drawn)
  -6% | i
- COc1ccc(CCNC(=O)CCCn2c(SCC(N)=O)nc3cc4c(cc3c2=O)OCO4)cc1OC
  -16% | -19%
- Cc1c(Cl)c([N+](=O)[O-])nn1CCCC(=O)Nc1cccc(O)c1
  -12% | -6%
- Cc1c(F)cccc1NS(=O)(=O)c1ccc2c(c1)c(=O)n(C)c(=O)n2C
  -23% | i
- CCN(CC)S(=O)(=O)c1ccc(NC(=O)c2cccc3c2C(=O)N(CCOC)C3)cc1
  -8% | i
- CCn1cc([N+](=O)[O-])c(C(=O)Nc2c(C)nn(Cc3cccc(F)c3)c2C)n1
  3% | -9%
- O=C(N/N=C/c1ccc([N+](=O)[O-])o1)c1ccc(NS(=O)(=O)c2cccs2)cc1
  -24% | -14%
- CC[C@H](C)[C@H]1CNC(=S)N1CC1CCN(CCC23CC4CC(CC(C4)C2)C3)CC1
  ? | ?
- CCCCN(C(=O)c1cccc(S(=O)(=O)N2CCN(C)CC2)c1)c1c(N)n(CCCC)c(=O)[nH]c1=O
  1% | -12%
- COC(=O)c1c(-c2ccc(OC)cc2)oc2ccccc12
  -12% | i
- CC(OC(=O)c1ccc(NC(=O)CC#N)cc1)C(=O)NC(=O)NC1CCCCC1 (stereo not drawn)
  -3% | -7%
- O=C(CCSCCc1ccccn1)Nc1cc(F)ccc1F
  -13%&-14% | -3%&-10%
- O=c1[nH]c(=O)n(CC2CCCO2)c(O)c1/C=C1\C=Nc2ccccc21 (stereo not drawn)
  -11%&0% | -8%&-12%
- C=CCn1c(SCC(=O)NCC2CCCO2)nc2scc(-c3ccc(OC)cc3)c2c1=O (stereo not drawn)
  -11% | i
- CCOCCCNC(=S)N1CCN(Cc2ccco2)CC1
  -8% | -13%
- CC1=C(C)CC(C(=O)NNC(=O)c2cccc(Cl)c2)C(C(=O)O)C1 (stereo not drawn)
  -6% | -18%
- c1ccc2nc(-c3cc4ccccc4s3)ccc2c1
  -12% | 36%[activator]
- O=C1/C(=C/c2ccco2)SC(=S)N1CC1CCCO1 (stereo not drawn)
  19% | i
- O=C(NNC(=O)c1cc(Cl)ccc1O)c1cccc(S(=O)(=O)N2CCOCC2)c1
  -3% | -15%
- Cc1c(C(=O)NCCn2ccc3ccccc32)cccc1[N+](=O)[O-]
  -11% | -24%

# Reformatted comma-delimited: entries from further up.
smiles,VACV Venus inh,Vaccinia mCherry
CCN(CC)S(=O)(=O)c1ccc(NC(=O)c2cccc3c2C(=O)N(CCOC)C3)cc1,-8%,i
CCn1cc([N+](=O)[O-])c(C(=O)Nc2c(C)nn(Cc3cccc(F)c3)c2C)n1,3%,-9%
O=C(N/N=C/c1ccc([N+](=O)[O-])o1)c1ccc(NS(=O)(=O)c2cccs2)cc1,-24%,-14%
CC[C@H](C)[C@H]1CNC(=S)N1CC1CCN(CCC23CC4CC(CC(C4)C2)C3)CC1,?,?
CCCCN(C(=O)c1cccc(S(=O)(=O)N2CCN(C)CC2)c1)c1c(N)n(CCCC)c(=O)[nH]c1=O,1%,-12%
COC(=O)c1c(-c2ccc(OC)cc2)oc2ccccc12,-12%,i

# Further structures
# Every second line gives: VACV Venus inh | Vaccinia mCherry
- O=C(CC(C(=O)O)P(=O)(c1ccccc1)c1ccccc1)c1ccccc1 (stereo not drawn)
  -3% | -2%
- CC(=O)NCCc1cnc[nH]1
  -12% | -21%
- CN(c1ccccc1)S(=O)(=O)c1cc(C(=O)Nc2nc3ccccc3[nH]2)ccc1Cl
  ? | ?
- Cc1ccc(OCc2cc(=O)n3c(-c4ccccc4)csc3n2)cc1
  -4% | 3%
- CCCCOc1ccc(N(CC(=O)NC(C)(C)CC)C(=O)CCC(=O)Nc2ccccn2)cc1
  -27% | -9%
- COc1ccc(-n2c(C)cc(C(=O)Cn3nnc4ccccc4c3=O)c2C)cc1
  -12% | -17%
- CCNC(=O)C1(C)CCCN(C(=O)c2ccccc2Br)C1 (stereo not drawn)
  -3% | 28%
- COCCCN(CC(=O)Nc1ccc(N2CCOCC2)cc1)S(=O)(=O)c1ccccc1
  -6% | i
- CC(C)(C)OC(=O)N1CCC(c2c(C(=O)NCc3ccccn3)cnn2-c2ccccc2Cl)CC1
  -16% | -6%
- O=C(c1ccccc1)N1CCc2cc(CNS(=O)(=O)c3ccc(Cl)s3)ccc21
  -22% | -30%
- OC(C1=CC(=Cc2ccncc2)c2ccccc21)c1ccncc1 (stereo not drawn)
  -14% | -25%
- CC(=O)N1CCN(S(=O)(=O)c2cccc(C(=O)NCc3ccc(F)cc3)c2)CC1
  -7% | -19%
- C/C(=N/Oc1nc(C)cc(C)n1)c1ccc(Br)cc1
  9% | ·
- COc1ccccc1CNC(=O)c1cc(C(C)C)nc2ccccc12
  -5% | -5%
- CN(C(=O)COC(=O)c1cn(-c2ccccc2)nc1-c1ccccc1)C1CCS(=O)(=O)C1 (stereo not drawn)
  -22% | i
- CCN(CC)C(=O)c1ccc(NC(=O)CCn2nc(-c3ccc(C)cc3)c3ccccc3c2=O)cc1
  -25% | i
- Cc1ccc(NC(=O)C2CCCN(c3cnccn3)C2)c(C)c1 (stereo not drawn)
  -10% | -2%
- Cc1cc(C)n(CC(=O)NNC(=O)c2ccc(S(C)(=O)=O)cc2)n1
  -1% | -8%
- Cc1ccc(CNC(=O)CSc2nc3ccsc3c(=O)n2-c2ccc(Br)cc2)cc1
  -21% | -19%
- COc1ccccc1NC(=O)CN1CC(=O)Nc2ccccc21
  -4% | i
- O=C(/C=C/c1cccc(F)c1)NC1CCN(Cc2ccccc2)CC1
  -14% | -10%
- CCOC(CCc1c(C)nc(NC(C)=O)[nH]c1=O)OCC
  -10% | i
- CNC(=S)N/N=C(\C)c1cccc([N+](=O)[O-])c1
  -11% | -15%
- CCCc1cc(=O)[nH]c2nnc(SCC(=O)Nc3cccc(C)c3)n12
  -9% | -25%
- CCCC(=O)Nc1nc(C)c(-c2csc(Nc3ccc(Cl)cc3)n2)s1
  ? | ?
- O=C(c1cncc(Br)c1)N1CCCc2ccccc21
  1% | -4%
- CCC(C)N1CNc2c(c(=O)[nH]c(=S)n2-c2cccc(C)c2)C1 (stereo not drawn)
  -19% | -10%
- CCOP(=O)(Cc1cc(C#N)oc1C)OCC
  -11% | -2%
- Cc1cccc(CN2CCc3nnc(C(C)NC(=O)C4CCOCC4)n3CC2)c1 (stereo not drawn)
  -6% | -9%
- Cc1c2cnn(CC(=O)NCCCN3CC(C)CC(C)C3)c(=O)c2c(C)n1Cc1ccccc1Cl (stereo not drawn)
  ? | -22%
- CCN(CC)S(=O)(=O)c1cc(NS(=O)(=O)c2c(Cl)cccc2Cl)ccc1C
  -17% | -19%
- Cc1ccc(Nc2ncc(C(=O)Nc3ccc(F)cc3F)c3ccccc23)cc1Cl
  -14% | -21%
- CC1CCN(S(=O)(=O)c2ccc(NC(=O)C3CC3)cc2)CC1
  -10% | -12%
- O=C(CSc1nnc(-c2cccs2)n1Cc1ccccc1)NCc1ccc2c(c1)OCO2
  -11% | ·
- O=C(O)Cn1ncn(-c2ccc(OC(F)(F)F)cc2)c1=O
  -4% | 0%
- Cn1c(=O)oc2cc(S(=O)(=O)N3CCCC3)ccc21
  -9% | i
- Brc1ccc(C2N3CCCN23)cc1 (stereo not drawn)
  -4% | -6%
- CCOC(=O)CC1c2nc3ccccc3cc2CN1C(=O)OCC (stereo not drawn)
  -14% | i
- CN(C(=O)c1nc(-c2cccc(F)c2)n2c1CCCCC2)c1ccccc1F
  -1% | i
- Nc1c(Br)cc(/C=C/c2ccnc3ccccc23)cc1Br
  -27% | 7%
- O=c1c2ccccc2nc(-c2ccco2)n1-c1ccccc1
  -7% | ·
- CCCc1ccc(C(C)NC(=O)c2cnccn2)cc1 (stereo not drawn)
  -24% | ·
- COc1ccc(C(C)=O)cc1COc1nc(C)nc2ccccc12
  1% | -7%
- Cc1ccc(S(=O)(=O)N2CCN(C(=O)/C=C/c3ccccc3)CC2)cc1C
  -27% | ?
- CCOC(=O)NC(=O)C(=CNc1ccccc1C)C(=O)NC(=O)OCC
  -6% | i
- CCCCC(=O)N(C)c1c(C)nc2ccc(C(=O)NCCOc3ccc(OC)cc3)cn12
  0% | 12%
- CC(NC(=O)CC(O)(C(F)(F)F)C(F)(F)F)c1ccccc1 (stereo not drawn)
  -11% | -13%
- Cc1nc2cc3ccccc3cc2s1
  0% | i
- CCCOC(=O)c1ccc(NC(=O)C(CC)CC)cc1
  -12% | -10%
- Brc1ccc(-c2nnc(-c3ccccc3)c(N3CCSCC3)n2)cc1
  -20% | -9%
- COc1ccc(C)cc1Nc1ncnc2c1nnn2Cc1ccccc1Cl
  -28% | -9%
- CCn1cc(C(=O)Nc2ccc(NC(=O)c3ccco3)cc2)c(=O)c2ccc(C)nc21
  -4% | -9%
- COc1ccc(C(C)=O)cc1COc1ccc(Cl)c(C)c1
  4% | i
- COc1ccc(Cl)cc1C(=O)NCc1cn(C)nc1C
  -2% | -4%
- COc1ccc2c(c1)CCN1C2CCN2C(=O)CCC21 (stereo not drawn)
  9% | -9%
- COc1ccccc1OC(=O)Cc1cccc2ccccc12
  3% | -23%
- COc1ccccc1S(=O)(=O)Cc1ccc(C(=O)N2CCN(c3ccccn3)CC2)o1
  -3% | 2%
- Clc1ccc(-c2nc3cc(CN4CCCCC4)ccc3o2)cc1
  -2% | i
- CCc1ccc(NC(=O)C(Cc2ccccc2)NS(=O)(=O)c2ccc3c(c2)CCN3C(C)=O)cc1 (stereo not drawn)
  -17% | -17%
- Cn1cc(-c2ccccc2)cc(C#N)c1=O
  4% | i

# Individual results from the entries so far:
# Value for COc1ccc(Cl)cc1C(=O)NCc1cn(C)nc1C under Vaccinia mCherry: -4%
# Value for Clc1ccc(-c2nc3cc(CN4CCCCC4)ccc3o2)cc1 under VACV Venus inh: -2%

# Other results
# Every second line gives: VACV Venus inh | Vaccinia mCherry
- Cc1ccccc1-c1cc(C(=O)O)nn1CC1CC(c2cccc([N+](=O)[O-])c2)=NO1 (stereo not drawn)
  -2% | i
- NC(=O)c1c(-c2ccccc2)oc2ccc(O)cc12
  -13% | -14%
- Cc1ccccc1-n1cnnc1SCC(=O)Nc1cccnc1Cl
  -4% | -5%
- O=C(c1ccc(-c2ccccc2)cc1)N1CCN(c2ncccn2)CC1
  -2% | -12%
- Cc1c(NC(=O)C(C)OC(=O)c2ccc([N+](=O)[O-])cc2Cl)c(=O)n(-c2ccccc2)n1C (stereo not drawn)
  -12% | -14%
- O=C(Nc1cccc(F)c1)/C(=C\c1cccnc1)NC(=O)c1ccco1
  0% | i
- Clc1nccc(N2CCN(c3ccccc3Cl)CC2)n1
  ? | -14%
- O=C1C=CC(=O)N1c1cccc(-c2ccccc2)c1
  -2% | -10%
- O=C(NC1CCCCCC1)c1cc2c(=O)n3ccccc3nc2s1
  -4% | -9%
- COc1ccc(N(CC(=O)NC2CC3CCC2C3)S(=O)(=O)c2ccc(C)cc2)cc1 (stereo not drawn)
  -24% | -1%
- CC(C)CC(c1nnnn1C(C)(C)C)N1CCN(C2CCCC2)CC1 (stereo not drawn)
  -14% | ·
- COC(=O)c1cc(OC)c(OC)cc1NC(=O)CCCCCN1C(=O)CCC1=O
  -14% | -11%
- O=C(NCC(NS(=O)(=O)OCC(Cl)(Cl)Cl)c1ccccc1)C(F)(F)F (stereo not drawn)
  ? | -14%
